Screening data deposited in PubChem by National Center for Advancing Translational Sciences (NCATS).
Six1-Eya2 blk – Six1/Eya2 interaction inhibition | Q15475+O00167 | AlphaScreen GST-Six1/His-Eya2 binding, biochemical; stronger effect = lower value; control for the full effect not named in the record | activity change, % (no concentration beside the values) | 360,000 compounds, 0.56% hits; in the data active = activity change below about -65%; inconclusive = about -30% to -65%; inactive = above about -30%; also: % is scaled to controls: 0 for no effect and ±100 for the full control effect
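Homogeneous AlphaScreen proximity assay pairing GST-Six1 with His-tagged Eya2 (added as 5X mix: 250 nM and 500 nM) in 50 mM Tris pH 8.0, 300 mM NaCl, 1 mM TCEP. Glutathione donor and nickel acceptor beads; 1 h, 37 °C, dark.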
D2 PAM – potentiates the human D2 dopamine receptor allosterically; DiscoveRx D2 beta-arrestin cells, luminescence, 90 min; 100% = 57 uM dopamine signal; potentiation, % (no concentration beside the values); 360,000 compounds, 0.23% hits; active = potentiation of 50% or more; inconclusive = 30% to 50%; inactive = 30% or less;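 also: compound concentration not given in the record; tested on top of an EC20 dose of dopamine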
Target sequence (P14416 whole entry, looked up): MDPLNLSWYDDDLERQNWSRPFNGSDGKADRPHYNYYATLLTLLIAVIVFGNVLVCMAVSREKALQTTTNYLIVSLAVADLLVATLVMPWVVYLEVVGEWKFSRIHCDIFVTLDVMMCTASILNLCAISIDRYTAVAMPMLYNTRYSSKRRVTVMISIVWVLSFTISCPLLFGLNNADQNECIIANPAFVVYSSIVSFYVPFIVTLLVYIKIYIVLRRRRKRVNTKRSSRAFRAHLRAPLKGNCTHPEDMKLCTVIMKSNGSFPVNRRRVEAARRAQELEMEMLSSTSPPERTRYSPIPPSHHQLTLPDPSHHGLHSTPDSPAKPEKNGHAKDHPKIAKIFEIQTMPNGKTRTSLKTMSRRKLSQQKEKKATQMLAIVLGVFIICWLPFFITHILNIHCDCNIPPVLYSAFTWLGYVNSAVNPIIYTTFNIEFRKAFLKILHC
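D2 cells co-treated with compound plus 50 nM dopamine (EC20) for 90 min at 37 deg C to detect potentiation. Beta-arrestin recruitment was read as enzyme-fragment luminescence after 1 h at ambient temperature. Full response was set by 57 uM dopamine.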
D2 ag – human D2 receptor agonism in beta-arrestin assay; AID 624465; DiscoveRx PathHunter D2 beta-arrestin, luminescence, 90 min; 100% = 57 uM dopamine signal; activation, % (concentration not given with the values); P14416; 360,000 compounds, 0.084% hits; in the data active = activation above about 40%; inconclusive = about 15% to 40%; inactive = below about 15%; also: the text of the record calls up to 30% inactive
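DiscoveRx PathHunter D2 beta-arrestin cells (2,100/well) attached overnight, then compound-stimulated 90 min at 37 C in HBSS/10 mM HEPES/0.1% Tween-20 buffer; beta-galactosidase complementation read by luminescence after 1 h at ambient temperature. Dopamine 57 uM final (EC100) as control.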
PINK1 expr mod – modulators of PINK1 expression; PINK1 immunofluorescence, high-content cytometry, 24 h; Potency, µM (series often up to 76.6 µM), without a hit: top-dose activation (PINK1 increase), most hits filed as activators; 410,000 compounds, 0.2% hits; AID 624263; active = well fitted activation curve with a large enough effect; inconclusive = small, poorly fitted or top-dose-only effect; inactive = flat fitted curve, though single readings scatter; cell line not stated here;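 also: potency is read from the fitted curve at half-maximal effect; % of control where 0% means no effect; nearly all actives have a fitted effect of over 65% in size; a mitochondrial uncoupler was the plate control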
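Stable cell line treated 24 h with compounds at 5 concentrations (CCCP controls), then fixed and immunostained for PINK1 plus nuclear and cell stains; PINK1 immunofluorescence quantified by laser-scanning microplate cytometry.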
CtBP-E1A blk – blocks the CtBP interaction with E1A | AlphaScreen GST-E1A/His-CtBP binding, 1536-well; stronger effect = lower value; control for the full effect not named in the record | activity change, % (concentration not given with the values) | 340,000 compounds, 0.49% hits; in the data active means activity change below about -65%; inconclusive means about -30% to -65%; inactive means above about -30%; also: % is scaled to controls: 0 for no effect and ±100 for the full control effect
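Homogeneous bead-based format: GST-tagged E1A captured on glutathione donor beads, His-tagged CtBP on nickel acceptor beads; compounds precede bead addition by 2 h at 37 °C.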
TRPML1 agonist – activates the human TRPML1 channel | TRPML1-expressing cells, Ca2+ dye fluorescence, FDSS; host cell line not named in the record; reference of the full effect not given here | AID 624414 | 410,000 compounds, 0.12% hits | activation, % (concentration not given with the values); in the data active = activation above about 50%; inconclusive = about 30% to 50%; inactive = below about 30%; also: 0% is about no effect; the text of the record puts the active cut at 80%
Target sequence (Q9GZU1 whole entry, looked up): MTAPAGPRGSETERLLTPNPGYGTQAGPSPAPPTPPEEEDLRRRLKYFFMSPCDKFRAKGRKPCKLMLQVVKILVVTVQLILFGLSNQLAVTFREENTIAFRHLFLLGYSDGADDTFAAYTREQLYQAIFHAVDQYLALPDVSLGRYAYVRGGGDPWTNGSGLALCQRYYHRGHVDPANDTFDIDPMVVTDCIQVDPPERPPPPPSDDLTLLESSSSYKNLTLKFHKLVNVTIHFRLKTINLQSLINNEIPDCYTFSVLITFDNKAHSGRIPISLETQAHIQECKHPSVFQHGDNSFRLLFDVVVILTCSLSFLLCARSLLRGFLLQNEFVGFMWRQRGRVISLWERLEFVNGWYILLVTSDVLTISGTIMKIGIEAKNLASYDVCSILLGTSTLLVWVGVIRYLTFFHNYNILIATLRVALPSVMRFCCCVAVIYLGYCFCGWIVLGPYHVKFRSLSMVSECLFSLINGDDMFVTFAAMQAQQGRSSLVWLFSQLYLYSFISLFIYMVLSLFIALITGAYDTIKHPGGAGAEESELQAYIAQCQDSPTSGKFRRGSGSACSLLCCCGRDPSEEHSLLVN
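In this qHTS format, compounds were pin-transferred onto Ca8-dye-loaded TRPML1-DL cells induced with Tet overnight, and intracellular Ca2+ fluorescence was recorded kinetically for 110 s after a 10 s baseline. A subsequent 4uM final 54-4 (EC80) addition followed by a second 110 s read served as the antagonist phase.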
* = called active by the depositor; ? = inconclusive; . = no result given; & = joins results of further samples; [ ] = dose if it differs, or a comment.

Fields: Six1-Eya2 blk, D2 PAM, D2 ag, PINK1 expr mod, CtBP-E1A blk, TRPML1 agonist
(1) COc1nc(Cc2ccc(Cl)cc2)nc2ccccc12
  4, 2, 5.8, 2.2%, 7, -1.0
(2) COc1ccc(OC)c(NC(=O)CCN2CCCC(C)C2)c1 (stereo not given)
  0, -14, -0.9, ., 8, -0.2
(3) Cc1nnc(NC(=O)c2cccc(Br)c2)s1
  2, -4, -1.5, 0.1%, 3, -0.1
(4) COc1ccc(Cc2nc3c4c(ncn3n2)Oc2ccc3ccccc3c2C4c2ccc(OC)c(OC)c2)cc1 (stereo not given)
  -11, 2, -3.0, 2.4%, -16, -0.7
(5) CC(=O)Nc1ccc(OCCOc2ccc(/C=C3\C(=N)N4N=C(C)SC4=NC3=O)cc2)cc1
  11, -6, -0.4, 2.4%, 0, -0.4
(6) COC(=O)Cn1c(C)nc2ccccc21
  -1, -5, -1.5, -3.6%[38.3 µM], 10, -0.1
(7) Cc1cccc(C(=O)Oc2ccc(/C=N/NC(=O)c3cc(O)cc(O)c3)cc2)c1
  ?, 21, 2.0, 4.3%, ?, 0.3
(8) COCc1c(C(=O)NC2CCCCCC2)oc2ccccc12
  7, 10, ?, 7.4%, 14, 0.5
(9) Cc1cc(C)cc(C(=O)N2CCN=C2c2ccccc2)c1
  10, -10, 1.4, -0.8%, ., 0.5
(10) Cc1ccc(C2=NN(C(=O)c3ccccc3F)C(c3ccccc3F)C2)cc1 (stereo not given)
  -10, -5, 3.1, 1.2%, 3, -1.0
(11) Cc1ccc(NC(=S)NC2CCSc3ccccc32)cc1 (stereo not given)
  -24, -3, -3.0, 9.4%, -19, 3.4
(12) CC1Cc2ccccc2N1S(=O)(=O)c1cccc(C(=O)NCc2ccco2)c1 (stereo not given)
  22, -24, -2.3, 2.7%, 18, -0.5
(13) COc1ccc2c(c1)C(c1cccs1)=NNC(c1cccnc1)=N2
  -8, -7, 1.4, 2.3%, -5, 0.8
(14) CCOP(=O)(OCC)C(C)(C)NC(=O)c1cc([N+](=O)[O-])cc([N+](=O)[O-])c1
  22, 0, -0.4, -3.8%, 0, 0.3
(15) O=C(NCCc1ccc(Cl)cc1)c1cccc(NC2=NC3CS(=O)(=O)CC3S2)c1 (stereo not given)
  5, -4, 3.8, 1.8%, 4, 0.0
(16) CN1CCC(=NNC(=O)c2ccco2)CC1
  -5, -20, -3.9, -2.1%, -3, -0.4
(17) Cc1ccc(CN(C)C(=O)C2CCN(C(=O)Nc3ccccc3)CC2)o1
  -2, 3, -2.3, 3.5%, -4, -0.6
(18) Cc1cc(=O)oc(C)c1C(=O)OCC(=O)c1ccc(Cl)c(Cl)c1
  1, -12, 2.1, ?, 9, 1.5
(19) CC(C)CCn1c(CN(C)Cc2ccccc2)nc2c1c(=O)n(C)c(=O)n2C
  2, -2, 0.8, -2.0%, 1, 0.0
(20) Cc1nc(Nc2ccc3c(c2)OCO3)c2oc3ccccc3c2n1
  -28, -1, -5.3, -1.0%, ?, 2.4
(21) C=C1C(=O)[C@]23C[C@H]1CCC2[C@@]1(C)C(C[C@@H]3O)[C@](C)(C(=O)OC)CC[C@@H]1O (stereo not given in full)
  3, -20, -9.9, -0.6%, 2, 0.6
(22) CCCCNc1c(-c2ccc(OC)c(SC(C)CC)c2)nc2ccc(C)cn12 (stereo not given)
  -15&-8, 11, 11, ?, -12&-14, 3.1&-0.3
(23) N#Cc1sc(=O)[nH]c1Cl
  3, 18, 1.9, 1.7%, 5, -0.6&0.6
(24) COc1ccc(C(CNC(=O)C(CCSC)NC(=O)c2ccccc2OC)N2CCCCC2)cc1 (stereo not given)
  -3, -37, 1.3, 2.1%, 13, 0.0
(25) Cc1cc(NC(=O)C2CCCCC2)nc2c1c(=O)oc1ccccc12
  8, 11, -5.3, 13%, 1, -0.4
(26) Cc1ccn2nc(C(=O)OCC(=O)N(CC(C)C)C3CCS(=O)(=O)C3)nc2n1 (stereo not given)
  6, -2, 2.4, 2.4%, -3, 0.3
(27) COc1ccc(Cc2nnc(Nc3ccc(C)cc3C)[nH]c2=O)cc1
  4, -16, -0.9, -5.2%, -8, 1.9
(28) CC(Oc1cccc(Cl)c1)C(=O)Nc1cc(S(=O)(=O)N2CCOCC2)ccc1N1CCCCC1 (stereo not given)
  -11, -13, -2.1, -1.7%, -10, 1.2
(29) Cc1noc(C)c1NC(=O)N(C)C[C@@H]1Oc2ncc(Br)cc2C(=O)N([C@@H](C)CO)C[C@@H]1C
  6, -4, -0.9, -1.5%, -16, 0.8
(30) COc1ccccc1NC(=O)COc1ccc2c(c1)OCO2
  -10, -10, -5.5, 0.5%, 9, -0.2

Fetched one by one from above, 5 records:
Fields: Six1-Eya2 blk, D2 PAM, D2 ag, PINK1 expr mod, CtBP-E1A blk, TRPML1 agonist
(20) Cc1nc(Nc2ccc3c(c2)OCO3)c2oc3ccccc3c2n1
  -28, -1, -5.3, -1.0%, ?, 2.4
(11) Cc1ccc(NC(=S)NC2CCSc3ccccc32)cc1 (stereo not given)
  -24, -3, -3.0, 9.4%, -19, 3.4
(23) N#Cc1sc(=O)[nH]c1Cl
  3, 18, 1.9, 1.7%, 5, -0.6&0.6
(9) Cc1cc(C)cc(C(=O)N2CCN=C2c2ccccc2)c1
  10, -10, 1.4, -0.8%, ., 0.5
(7) Cc1cccc(C(=O)Oc2ccc(/C=N/NC(=O)c3cc(O)cc(O)c3)cc2)c1
  ?, 21, 2.0, 4.3%, ?, 0.3

Going on with the list:
Fields: Six1-Eya2 blk, D2 PAM, D2 ag, PINK1 expr mod, CtBP-E1A blk, TRPML1 agonist
(31) CC(Nc1[nH]c(=O)n(C)c(=O)c1N=O)c1ccccc1 (stereo not given)
  -2, -7, -6.4, 0.4%, -4, 2.2
(32) Cc1nc2ccccc2c2c1CC(C)S2 (stereo not given)
  0, 0, -0.5, 0.3%, 3, .
(33) CC1CN(C(=O)c2ccc(Br)c(S(=O)(=O)N3CCOCC3)c2)CC(C)O1 (stereo not given)
  -1, -6, -4.1, 1.3%, 9, -0.2
(34) CC(=O)OC(COc1ccccc1)Cn1cnc2cc(C)c(C)cc21 (stereo not given)
  -4, 9, 2.9, 1.0%&-1.2%, -16, 0.2&1.4
(35) CNCc1ccccc1Sc1ccc(OC)c(OC)c1
  -2, -5, -2.9, -0.4%, -3, -0.6
(36) COc1ccc(S(=O)(=O)Nc2cccc3c2O[C@H](CN(C)S(=O)(=O)c2cn(C)cn2)[C@@H](C)CN([C@H](C)CO)C3=O)cc1
  3, -1, -7.4, 0.3%, 5, -0.4
(37) C=C1c2ccccc2NC(=O)N1c1ccc(C)cc1
  6, -29, -8.4, 3.9%, 5, -0.6
(38) COCc1ccc(C(=O)N2CCCC(CNC(=O)c3ccc(F)cc3)C2)o1 (stereo not given)
  8, 3, -4.7, 1.5%, 3, 0.1
(39) COCCCNC(=O)c1cc(C)nn1-c1ccccc1
  3, 6, 8.2, 0.1%, 3, 0.6
(40) Cc1cc([N+](=O)[O-])nn1Cc1noc(C(=O)NCCc2ccccn2)n1
  -1, -1, -1.1, 1.9%, -9, -0.3
(41) Cc1nc2c(-c3ccc(F)cc3)c(C)nn2c(C)c1CCC(=O)N1CCN(c2ccc(F)cc2)CC1
  -2, -5, 3.2, 0.9%&2.0%, -4, -0.5&-1.3
(42) CCCNC(=O)Cn1nc(C(F)(F)F)c2c1CCC2
  1, 0, 5.0, 1.4%, 9, 0.0
(43) O=C(Nc1nn(Cc2ccc(Cl)cc2)cc1Br)c1ccc(COc2ccccc2Cl)o1
  -22, -6, -3.1, -2.1%, 6, 0.6
(44) N/C(=N\OC(=O)C12CC3CC(CC(C3)C1)C2)c1ccccn1
  -6, -6, -2.1, -2.9%, 8, 0.8
(45) O=C(COC(=O)c1ccc(CN2CCCC2=O)cc1)Nc1ccc(F)cc1
  1, -3, -0.1, 1.4%, 9, -0.5
(46) CC[C@@H]1C=C(C(=O)O)[C@H](c2cccc(C)c2)N1S(=O)(=O)c1ccc(C)cc1
  3, -1, -2.6, -0.4%, -24, 0.8
(47) Cn1nc(C(=O)NC2CCCC2)c2ccccc2c1=O
  -2, -5, -4.0, 0.8%, ., 0.1
(48) CCCCNC(=O)c1onc(CSc2cccc(F)c2)c1C(=O)O
  -6, 0, 1.1, 3.3%, 4, -0.7
(49) Cc1cc(Cl)ccc1NC(=O)Nc1c(C)n(-c2ccccc2)c(=O)n1C
  7, -11, -4.8, ?, 3, 1.7
(50) COc1ccc(C)cc1NC(=O)CSc1nnc2ccc(-c3ccccn3)nn12
  10, 0, -0.7, 9.3%, 0, 2.3
(51) CCOC(=O)c1[nH]c2ccc(Br)cc2c1NC(=O)CCN1CCOCC1
  -1, -3, 8.8, -0.9%, ., 0.6
(52) CCO/C=C/C(=O)N(C)CCC#N
  3, -11, 0.5, 0.3%, 9, -0.2
(53) CCC(C(=O)NCc1ccccn1)n1c2ccccc2c2nc(=O)cc(C)n21 (stereo not given)
  -2, 0, -1.5, -0.5%, -5, -1.0
(54) OC(COCc1ccc(Cl)cc1)CN1CCc2ccccc2C1 (stereo not given)
  8, -20, -2.6, 3.2%, 9, 0.2
(55) Cc1nc2cc(-c3cccc(F)c3)nn2c(N2CCN(C(=O)c3ccco3)CC2)c1C
  3, -20, -2.6, -2.4%, 1, -0.6
(56) CCOc1ccc(S(=O)(=O)NCCCN2CCCC2=O)cc1
  18, -5, 2.6, 1.8%, ., -0.8
(57) O=C(Cc1nn[nH]n1)Nc1cc(Cl)cc(Cl)c1
  3, -6, 0.2, 0.1%, ., 1.3
(58) CN(CCC#N)C(=O)COC(=O)c1c2c(nc3ccccc13)/C(=C/c1ccco1)CC2
  ?, 30, 6.9, 1.7%, -13, 0.9

Compounds listed so far that contain a COOH group, in the order listed:
Fields: Six1-Eya2 blk, D2 PAM, D2 ag, PINK1 expr mod, CtBP-E1A blk, TRPML1 agonist
(46) CC[C@@H]1C=C(C(=O)O)[C@H](c2cccc(C)c2)N1S(=O)(=O)c1ccc(C)cc1
  3, -1, -2.6, -0.4%, -24, 0.8
(48) CCCCNC(=O)c1onc(CSc2cccc(F)c2)c1C(=O)O
  -6, 0, 1.1, 3.3%, 4, -0.7
